Mtb hypoxia rep = PubChem AID 1159583; M. tuberculosis hypoxia-regulated fluorescent reporter, fluorescence; fluorescence inhibition, % (concentration not given with the values); actives 0.1% (n = 300,000);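 active = 35 to 45% if threefold the growth effect, above 45% if 1.5-fold the growth effect; inactive = the rest, general growth blockers included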;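 note: wells of about 50 µL received 100 nL stock; 0% = vehicle wells and 100% = reference inhibitor wells; whole bacteria with a GFP reporter of the hypoxia response; strong numbers were not always called active; many hits fall short of the cut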
Sa RN4220 lethal = growth inhibition of S. aureus RN4220, primary screen, OD600; 16 h; inhibition, % (test concentration not listed); actives 0.33% (n = 330,000); AID 1259311, 2017;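 active = z-score of -3 or lower and OD600 up to 0.18 on both plates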;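 note: plate controls were untreated cells for no effect and reference antibiotic for full effect; stock transfer was 100 nL into about 80 µL; one replicate is shown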
BJeLR lethal = MLPCN primary cell-based screen for lethality selective to Ras in HRASV12 cells; BJeLR (HRASV12) viability, CellTiter-Glo ATP luminescence, 48 h; reference of the scale not given here; inhibition, % (test concentration not listed); actives 0.17% (n = 300,000);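 active = replicate mean above 50%; inconclusive = above 50% but judged a plate artefact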;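 note: 50 nL library stock added to about 25 µL; numbers are from one replicate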
Autofluor counter = counter-screen for toxin protease inhibitors: compound fluorescence; compound autofluorescence counterscreen, microsphere flow cytometry; hits give high values; fluorescence intensity (test concentration not listed); actives 3.1% (n = 360,000);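 active = at least 3 SD above the mean of all compounds, about 16000 in these data; inconclusive = too few beads counted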;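 note: 100 nL of 1 mM stock went into each well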
PrP UTR inh = inhibition of PrP 5' UTR reporter expression; cell-based PrP 5' UTR mRNA reporter, plate reader; inhibition, % (concentration not given with the values); actives 0.35% (n = 340,000); AID 488862, 2010;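 active = every replicate at 50% or more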;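 note: 0 = median of the neutral control wells; tested in H4 reporter cells; numbers are from one replicate; inactives centre near -14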
ugtP null kill = growth inhibition of ugtP-null S. aureus, primary screen, RN4220 ugtP deletion, OD600 | actives 0.54% (n = 330,000) | AID 1259309, 2017 | growth inhibition, % (concentration not given with the values) | 16 h; some inactives read as strong as hits;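 active = z-score under -3 and OD600 up to 0.15 on both plates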;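 note: plate controls were untreated wells for no effect and antibiotic for full effect; wells of about 80 µL received 100 nL stock; the first replicate is given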
Mtb hypoxia rep growth = also measured in Mtb hypoxia rep; calls as there; growth inhibition, %; measured here: M. tuberculosis growth (absorbance);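 0% = vehicle and 100% = reference antibiotic; read after six days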
Active calls of the source: *; ? = inconclusive; · = no result given.

Second line of a record: Mtb hypoxia rep | Mtb hypoxia rep growth | Sa RN4220 lethal | BJeLR lethal | Autofluor counter | PrP UTR inh | ugtP null kill
Cc1nnc(NC(=O)CSc2ccc(-c3cccnc3)nn2)s1
→ 10 | 7 | 2.5 | 5 | 4069 | -23 | 13
Cc1ccc(NC(=O)CCN2CCN(C)CC2)cc1
→ -1 | -3 | 0.8 | -9 | 3132 | -7 | 1
Cc1ccccc1-n1c(-c2ccc(Cl)cc2)cnc1SCC(=O)NC1CCS(=O)(=O)C1 (stereo not given)
→ · | · | · | 2 | 2242 | -6 | ·
Cc1cc(C)nc(SCC(=O)NN=Cc2cc(C)n(-c3ccccc3C)c2C)n1
→ 7 | 7 | 2.3 | · | · | · | 1
Cn1nc(C(=O)OCC(=O)c2ccc(Br)cc2)c2ccccc2c1=O
→ 6 | 11 | -0.2 | · | 4987 | -31 | -5
Cc1ccnc(NS(=O)(=O)c2ccc(NC(=O)C3CCCO3)cc2)n1 (stereo not given)
→ 16 | 3 | 5.1 | -3 | 12859 | -11 | 3
CCc1nc(NCC2CCCO2)c(C#N)c2c1COC(C)(C)C2 (stereo not given)
→ 5 | 11 | 3.1 | -21 | 4063 | -4 | 5
C=CCNC(=O)N1CCC(n2nccc2NC(=O)CCc2ccccc2)CC1
→ 9 | 5 | -1.8 | 4 | 4777 | -12 | 1
COc1ccc(CNCc2ccc(C(F)(F)F)cc2)cc1OC
→ -1 | -3 | -5.9 | -19 | 3368 | 7 | 3
COc1ccccc1NC(=O)CC1SC(=NN=C2CCCc3ccccc32)NC1=O (stereo not given)
→ -1 | -6 | -2.0 | · | · | · | 0
COc1ccc(Br)cc1CN1CCN(S(=O)(=O)Cc2ccccc2)CC1
→ 9 | -2 | 4.7 | 3 | 4123 | -20 | 8
C1CCc2c(nnc3c2-c2nonc2CC3)C1
→ 10 | 1 | 4.0 | 12 | 10394 | -13 | 2
COc1cccc(NC(=O)CCC2CCN(C(=O)c3scnc3C)CC2)c1
→ 5 | -7 | -0.6 | 1 | 6176 | -3 | 1
N#CCc1c(C#N)c(N)nc(N2CCN(Cc3ccc4c(c3)OCO4)CC2)c1C#N
→ -6 | 0 | 7.1 | · | 19575* | -7 | 4
COC(=O)/C(=N\Nc1ccccc1)Sc1nnc(-c2ccc(OC)cc2)n1C
→ · | · | · | -22 | 1914 | -21 | ·
CCCCCN(C(=O)NC(=O)Nc1nncs1)S(C)(=O)=O
→ 4 | 6 | 2.1 | 15 | 6971 | -43 | -1
COc1ccc(NS(=O)(=O)c2cccc(C(=O)NN=Cc3ccc(OC)cc3OC)c2)cc1
→ 15 | 10 | 5.1 | · | 3447 | -17 | 1
Cc1ccccc1S(=O)(=O)Nc1ncnc2ccccc12
→ 5 | 9 | 2.9 | -9 | 5245 | -12 | 12
ClCc1ncc(-c2ccc(Cl)cc2)o1
→ 8 | 13 | 14 | -3 | 4616 | -9 | 8
CC(=O)c1ccc(-c2ccc(C(=O)Nc3nc(C)c(C(C)=O)s3)o2)cc1
→ -1 | 1 | 4.9 | · | 3637 | -10 | -18
CCN(CC)CCNC(=O)c1ccc2c(=O)n(C3CCCC3)c(=S)[nH]c2c1
→ -11 | -8 | -1.0 | -9 | 20853* | -26 | 0
CC(=O)c1sc(NC(=O)CCS(=O)(=O)c2ccc(Cl)cc2)nc1C
→ 6 | 9 | 1.5 | 2 | 6019 | -9 | 7
COc1cccc(CNC(=O)CN2c3cccc4cccc(c34)S2(=O)=O)c1
→ 2 | 2 | 2.0 | -11 | ? | -5 | -2
Cc1cccc(-c2noc(-c3ccc(Cl)cc3[N+](=O)[O-])n2)c1
→ 2 | 17 | -2.3 | 7 | 1837 | -118 | 12
CC(NC(=O)Nc1ccc(Cl)cc1)c1ccc2c(c1)OCO2 (stereo not given)
→ -5 | 0 | -1.2 | 1 | 6465 | 2 | 2
O=C(NC(=S)NN1CCOCC1)c1cc(Br)ccc1Cl
→ -3 | -1 | 2.7 | · | 7553 | -15 | 7
COCCOC(=O)C1=C(C)NC(C)=C(C(=O)OCCOC)C1/C=C/c1ccccc1OC
→ 1 | 12 | 3.1 | 11 | 5271 | -11 | 4
Cc1c(S(=O)(=O)NC(C)c2ccccc2)c(=O)n(C)c(=O)n1C (stereo not given)
→ 5 | -8 | -0.2 | -9 | 5671 | -18 | 7
CC(=O)Nc1ccc(NC(=O)CCOc2cc(C)ccc2C)cc1
→ -4 | 3 | 2.7 | 2 | 4501 | -22 | -3
O=c1c(/C=N/N2CCOCC2)c(O)n(-c2ccccc2)c(=S)n1-c1ccccc1
→ · | · | · | 2 | 2439 | -11 | ·
CCOC(=O)c1sc(NC(=O)CC(C)c2ccccc2)nc1C (stereo not given)
→ 3 | 10 | 5.1 | 2 | 3795 | -22 | 12
O=C(NCc1cccnc1)Nc1ccc(Br)cc1Cl
→ 7 | -5 | 0.5 | -1 | 4722 | -21 | 4
Cc1ccc(NC(=O)CNCc2cccs2)cc1Br
→ 0 | 4 | 2.5 | -6 | 4072 | · | 14
CCCC(C)C(=O)Nc1nnc(C)s1 (stereo not given)
→ 8 | -6 | 1.4 | -4 | ? | -10 | 14
COc1ccc(C)cc1NC(=O)C(OC(=O)CNC(=O)c1ccc(Oc2ccccc2)cc1)c1ccccc1 (stereo not given)
→ -16 | -16 | -6.2 | 2 | 2383 | -25 | -12
Cc1cc(-c2ccc(C)c(S(=O)(=O)NCCCN3CCN(c4ccccc4F)CC3)c2)on1
→ -8 | 3 | 1.6 | 0 | 5265 | -11 | 2
COc1ccc(-c2cc(C(=O)Nc3ccccc3)on2)cc1
→ 7 | 10 | 8.8 | -3 | 4477 | -18 | 15
O=C(Nc1ccccc1C(=O)NCc1ccccc1)c1ccccc1
→ 0 | 4 | 6.8 | · | 22302* | -13 | -5
COc1ccc(-c2csc(NCc3ccco3)n2)cc1
→ · | · | -23 | -3 | 3531 | -102 | 0
CCN(CC)CCNC(=O)C1CCN(S(=O)(=O)N2CCCCC2)CC1
→ 17 | 5 | 1.4 | 3 | 6299 | -6 | -1

9 successive records out of the list so far, for reference:
Second line of a record: Mtb hypoxia rep | Mtb hypoxia rep growth | Sa RN4220 lethal | BJeLR lethal | Autofluor counter | PrP UTR inh | ugtP null kill
O=C(NCc1cccnc1)Nc1ccc(Br)cc1Cl
→ 7 | -5 | 0.5 | -1 | 4722 | -21 | 4
Cc1ccc(NC(=O)CNCc2cccs2)cc1Br
→ 0 | 4 | 2.5 | -6 | 4072 | · | 14
CCCC(C)C(=O)Nc1nnc(C)s1 (stereo not given)
→ 8 | -6 | 1.4 | -4 | ? | -10 | 14
COc1ccc(C)cc1NC(=O)C(OC(=O)CNC(=O)c1ccc(Oc2ccccc2)cc1)c1ccccc1 (stereo not given)
→ -16 | -16 | -6.2 | 2 | 2383 | -25 | -12
Cc1cc(-c2ccc(C)c(S(=O)(=O)NCCCN3CCN(c4ccccc4F)CC3)c2)on1
→ -8 | 3 | 1.6 | 0 | 5265 | -11 | 2
COc1ccc(-c2cc(C(=O)Nc3ccccc3)on2)cc1
→ 7 | 10 | 8.8 | -3 | 4477 | -18 | 15
O=C(Nc1ccccc1C(=O)NCc1ccccc1)c1ccccc1
→ 0 | 4 | 6.8 | · | 22302* | -13 | -5
COc1ccc(-c2csc(NCc3ccco3)n2)cc1
→ · | · | -23 | -3 | 3531 | -102 | 0
CCN(CC)CCNC(=O)C1CCN(S(=O)(=O)N2CCCCC2)CC1
→ 17 | 5 | 1.4 | 3 | 6299 | -6 | -1

(cont.)
smiles | Mtb hypoxia rep | Mtb hypoxia rep growth | Sa RN4220 lethal | BJeLR lethal | Autofluor counter | PrP UTR inh | ugtP null kill
CCCCC(=O)N(CCOC)c1nnc(-c2ccc(OC)cc2)s1 | -1 | 9 | 0.2 | -2 | 4354 | -13 | -7
Fc1cccc(-n2c(-c3cccs3)nc3nc4ccccc4nc32)c1 | -3 | -2 | 47 | 2 | · | · | 18
Cc1cc(-c2ccccc2)nc2c(Br)c(=O)[nH]n12 | · | · | · | 1 | 4647 | -11 | ·
O=C(Nc1cccc(S(=O)(=O)N2CCCCC2)c1)c1ccc2ccccc2n1 | 6 | 11 | 18 | 3 | 2912 | -52 | -5
CCOc1ccc(N(CC(=O)Nc2ccccc2F)S(=O)(=O)c2c(C)[nH]c(=O)[nH]c2=O)cc1 | -5 | -3 | 1.4 | 2 | 5003 | -35 | 3
COc1ccc(S(=O)(=O)Nc2c(C)n(C)n(-c3ccccc3)c2=O)cc1Br | 11 | -4 | -0.2 | 8 | 3820 | -13 | -2
CCOc1ccc(NC(=O)N(CCN(C)C)C(C)c2ccncc2)cc1 (stereo not given) | 5 | 7 | 8.5 | 11 | 5772 | -17 | 12
CS(=O)(=O)c1ccc2nc(NC(NC(=O)c3ccco3)(C(F)(F)F)C(F)(F)F)sc2c1 | 3 | -1 | 12 | -1 | 7961 | -4 | -4
CC(C)CC(NC(=O)c1nc[nH]c1C(=O)NC(CCCCNC(=O)OC(C)(C)C)C(=O)OC(C)(C)C)C(=O)OC(C)(C)C (stereo not given) | -12 | -3 | -7.3 | · | · | · | -3
COc1ccccc1OCCC(=O)OCC(=O)NC(=O)NC(C)(C)C | 4 | 9 | 1.6 | 2 | 3842 | -3 | 3
CC(=O)c1c(C)[nH]c(C(=O)Nc2ccc(Cl)cc2F)c1C | 4 | 2 | 2.1 | -9 | 6032 | -133 | -2
Cc1c(NC(=S)N/N=C/C=C/c2ccc([N+](=O)[O-])cc2)c(=O)n(-c2ccccc2)n1C | · | · | · | 15 | 2500 | 0 | ·
O=C(NCc1ccc(F)cc1)c1cccc2c1C(=O)N(Cc1cccnc1)C2 | 0 | 4 | -0.2 | 8 | 2635 | -8 | 7
COCCC(=O)N1CCC(Oc2ccc(C(=O)NC3CCCCC3)cc2)CC1 | 19 | -3 | -0.2 | -4 | 4546 | -9 | 8
CCN(CC)CCCNC(=O)c1cc2c(-c3cccc(OC)c3)nn(C)c2s1 | · | · | · | 10 | 4082 | -10 | ·
COc1ccc(-c2nnnn2C)cc1S(=O)(=O)NCCc1ccccc1 | 7 | 13 | 7.4 | -11 | 19418* | -12 | 3
CCCCn1c(N)c(N(CC(C)C)C(=O)CC2OC(=O)c3ccccc32)c(=O)[nH]c1=O (stereo not given) | 5 | -4 | 2.0 | -9 | 5605 | -7 | 8
CCCOc1nc(N)c(C#N)c(-c2ccccc2F)c1C#N | 7 | 7 | 4.0 | -14 | 4645 | 6 | 10
Cc1[nH]c2ccccc2c1CCO | 7 | 8 | 2.7 | 4 | 3451 | -11 | 1
C=CCOc1ccc(CNc2nccs2)cc1OCC | -2 | 3 | 8.9 | -11 | ? | -6 | 0
C/C(=N/NC(=O)CNC(=O)COc1ccccc1)c1ccco1 | · | · | · | -12 | 2498 | -4 | ·
COc1ccc(-c2cc3ccccc3oc2=O)cc1 | 2 | 14 | 15 | 5 | 3735 | -75 | 12
CC1(C)CC(OC(=O)c2ccccc2)CC(C)(C)N1 | 10 | -3 | 0.8 | -1 | 4641 | -14 | 11
COc1ccc(-c2nc(C)ncc2-c2csc(C)n2)c(O)c1 | -22 | -6 | 1.3 | 2 | 3312 | -11 | -3
C[C@]12CC[C@H](O)C[C@H]1CC[C@@H]1[C@@H]2CC[C@]2(C)C(=O)CC[C@@H]12 | · | · | 9.1 | · | 5276 | -17 | -9
CCOC1OC(C(=O)N2CCCCCCC2)=CC(c2coc3ccccc3c2=O)C1CCCO (stereo not given) | -2 | -3 | 5.3 | · | · | · | 2

Screening data (PubChem)
